# Screening results deposited in PubChem by National Center for Advancing Translational Sciences (NCATS).
# D2 PAM: potentiates the human D2 dopamine receptor allosterically; DiscoveRx D2 beta-arrestin cells, luminescence, 90 min; 100% = 57 uM dopamine signal; actives 0.23% (n = 360,000); potentiation, % (no concentration beside the values); active = potentiation of 50% or more; inconclusive = 30% to 50%; inactive = 30% or less;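 further: compound concentration not given in the record; tested on top of an EC20 dose of dopamine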
# Target sequence (P14416 whole entry, looked up): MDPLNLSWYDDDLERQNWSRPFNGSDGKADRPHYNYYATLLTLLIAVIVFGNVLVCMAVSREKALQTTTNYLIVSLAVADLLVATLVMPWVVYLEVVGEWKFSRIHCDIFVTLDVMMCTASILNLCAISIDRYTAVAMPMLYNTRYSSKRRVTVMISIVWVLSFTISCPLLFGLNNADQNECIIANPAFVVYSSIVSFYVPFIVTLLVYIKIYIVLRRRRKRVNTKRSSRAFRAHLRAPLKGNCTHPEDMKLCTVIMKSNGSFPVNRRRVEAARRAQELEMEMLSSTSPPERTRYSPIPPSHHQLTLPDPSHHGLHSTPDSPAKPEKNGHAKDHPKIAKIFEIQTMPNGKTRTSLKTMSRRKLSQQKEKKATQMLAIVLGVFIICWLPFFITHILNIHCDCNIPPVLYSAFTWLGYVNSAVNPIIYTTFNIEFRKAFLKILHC
#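 PathHunter beta-arrestin assay in DiscoveRx D2 cells. Compounds were added with an EC20 of dopamine (50 nM final) for 90 min at 37 deg C. Luminescence was read 1 h after detection reagent, with 57 uM dopamine as the EC100 control.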
# Six1-Eya2 blk: Six1/Eya2 interaction inhibition; activity change, % (concentration not given with the values); AlphaScreen GST-Six1/His-Eya2 binding, biochemical; stronger effect = lower value; control for the full effect not named in the record; actives 0.56% (n = 360,000); Q15475+O00167; AID 651725; in the data active = activity change below about -65%; inconclusive = about -30% to -65%; inactive = above about -30%; further: on the % scale 0 is the no-effect control and ±100 the full control effect
#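 AlphaScreen with GST-Six1 and His-Eya2 (5X mix: 250 nM and 500 nM), glutathione donor and nickel acceptor beads; buffer 50 mM Tris pH 8.0, 300 mM NaCl, 1 mM TCEP; 1 h at 37 C in the dark.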
# gsp antag: gsp mutant antagonism | AID 624288 | gsp-mutant cells, cAMP HTRF, 30 min; control for the full effect not named in the record | Potency, µM (highest dose often 76.9 µM), for the others: at the top dose activity change, negative = inhibition, hits mostly inhibitors | actives 0.4% (n = 340,000); active = falling curve of any shape with a large fitted effect; inconclusive = falling curve, mostly with a smaller effect; inactive = flat or rising curve; cell line not stated here;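 further: intracellular cAMP measured with PDE inhibitor Ro 20-1724 present during compound exposure; potency means the concentration at half of the fitted maximal effect; on the % scale 0 is the no-effect control and ±100 the full control effect; nearly all actives have a fitted effect of over 65% in size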
#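 Cells, 2000/well, grown 16–24 h in DMEM 10% FBS with 0.5 mg/ml G418, then compounds plus […] (300 uM addition stock), 30 min at 37C. cAMP read by HTRF (cAMP-d2 and anti-cAMP antibody-K in lysis buffer) after 30 min RT.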
# D2 ag: activates the human D2 dopamine receptor; activation, % (no concentration beside the values); actives 0.084% (n = 360,000); AID 624465; DiscoveRx PathHunter D2 beta-arrestin, luminescence, 90 min; 100% = 57 uM dopamine signal; in the data active = activation above about 40%; inconclusive = about 15% to 40%; inactive = below about 15%; further: compound concentration not given in the record; the text of the record calls up to 30% inactive
#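 DiscoveRx PathHunter D2 beta-arrestin cells (2,100/well) attached overnight, then compound-stimulated 90 min at 37 C in HBSS/10 mM HEPES/0.1% Tween-20 buffer; beta-galactosidase complementation read by luminescence after 1 h at ambient temperature. Dopamine 57 uM final (EC100) as control.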
# CtBP-E1A blk: inhibitors of CtBP/E1A interaction | AlphaScreen GST-E1A/His-CtBP binding, 1536-well; stronger effect = lower value; control for the full effect not named in the record | activity change, % (concentration not given with the values) | actives 0.49% (n = 340,000) | AID 651724; in the data active means activity change below about -65%; inconclusive means about -30% to -65%; inactive means above about -30%; further: on the % scale 0 is the no-effect control and ±100 the full control effect
#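 GST-E1A and His-tagged CtBP (125 nM each as 5X stock) were preincubated with pin-transferred compound for 2 h at 37 °C in the dark, then glutathione donor and nickel acceptor beads were added for 1 h before AlphaScreen reading.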
# gsp agonist: agonists of gsp mutant (McCune-Albright syndrome). actives 0.13% (n = 340,000). gsp mutant cells, cAMP HTRF, 30 min; control for the full effect not named in the record. Potency, µM (titrated, usually from 76.9 µM), for the others: at the highest dose activation (cAMP increase), usual class: activators; active = well fitted activation curve with a large enough effect; inconclusive = small, poorly fitted or top-dose-only effect, or another doubt; inactive = no such curve, though single readings can be large or run the other way; cell line not stated here;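 further: phosphodiesterase inhibitor Ro 20-1724 added with compounds to block cAMP breakdown; potency means the concentration at half of the fitted maximal effect; nearly all actives have a fitted effect of over 60% in size; about a fifth of the inactives were tested at one dose only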
#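 Cells in DMEM/10% FBS with G418 were pretreated with compounds in DMSO plus […] (300 uM stock) for 30 min at 37C. cAMP was measured by HTRF (cAMP-d2 plus anti-cAMP antibody-K) after 30 min at room temperature.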
# Numbers without * were called inactive; ? = inconclusive; / = no result given; & = joins results of further samples; [ ] = remark or other dose.
No.	structure	D2 ag	D2 PAM	CtBP-E1A blk	gsp agonist	Six1-Eya2 blk	gsp antag
1	O=C(Nc1cccc2ncccc12)C12CC3CC(CC(C3)C1)C2	-1.9	13	4	-1%	1	-6%
2	CCC(C)N1C(=O)CN(C2CCCCCC2)C(=O)C1c1ccccc1F (stereo not given)	-1.7	-2	4	-7%[15.4 µM]	1	-30%
3	CN=C1S/C(=C\c2ccc(O)c(Br)c2)C(=O)N1C	-3.7	-9	-1	31%	0	0%
4	Cc1cccc2c(=O)cc(C)n(Cc3ccccc3)c12	-4.4	-12	-4	-9%[15.4 µM]	48	3%
5	O=C(/C=C/c1ccc2c(c1)OCO2)N1CCN(c2ccc(Cl)cc2)CC1	-2.9	-18	-4	-38%[inhibitor]	-13	12%
6	CCCN(C(=O)CCNC(=O)Cn1cnc2ccccc2c1=O)c1cccc(Cl)c1	2.6	-7	1	-1%[15.4 µM]	1	-5%
7	CC(C)C[C@H]1CNC(=S)N1C[C@H]1CCCN1C[C@H](CC(C)C)N1C[C@H](Cc2ccccc2)N(CCc2ccccc2)C1=S	-4.4	-8	-2	/	-15	/
8	Cc1ccc(Cl)c(OCC(O)CN(CCO)CCO)c1 (stereo not given)	-0.8	-6	-1	-8%	2	6%
9	O=C1COc2ccc(S(=O)(=O)CCC(=O)N3CCN(c4cccc(C(F)(F)F)c4)CC3)cc2N1	2.5	-1	4	16%	-7	-23%
10	CNc1ccc(Br)cc(C(=O)/C=C/c2cccc(OC)c2)c1=O	0.3	7	-3	3%	-3	9%
11	COc1ccccc1CNC(=O)C(NS(=O)(=O)c1cccc2nsnc12)C(C)C (stereo not given)	-0.4	-10	-1	-1%	6	10%
12	CN(C(=O)CCc1ccccc1F)C1CCCN(Cc2ccccc2F)C1 (stereo not given)	-5.0	-10	1	-5%[15.4 µM]	1	13%
13	NC(=O)COC(=O)c1cc(S(=O)(=O)N2CCN(c3ccccc3)CC2)ccc1Cl	-2.4	-4	1	-3%[15.4 µM]	2	5%
14	CCOc1ccc(C(=O)NCC(=O)NNC(=O)CN(C)S(=O)(=O)c2ccc(Cl)cc2)cc1	-2.1	-7	-9	-37%[inhibitor]	0	9%
15	CN1C(=O)C(CC(=O)Nc2ccc(F)cc2)N(Cc2cccs2)C1=S (stereo not given)	-5.4	-16	-3	14%	-5	1%
16	COc1ccc2c(c1)OC1=C(C(=O)CCC1)C2C1=C(O)CCCC1=O (stereo not given)	-0.4	-3	2	?	3	-6%
17	O=C(Cc1ccc(Cl)cc1)Nc1ccc2oc(-c3ccncc3)nc2c1	4.1	16	0	9%	0	-14%
18	Cc1ccc(CC(=O)O/N=C(\N)c2ccccn2)cc1	1.3	0	6	27%	3	-2%
19	COC(=O)Nc1nc(-c2ccc(F)cc2)c(C)s1	-4.7	-22	-11	-19%[15.4 µM]	-12	2%
20	C(=N\Nc1nc2ccccc2[nH]1)/c1c[nH]c2ccccc12	4.4	-3	?	4%[15.4 µM]	-23	40µM*
21	O=C(CCOc1ccccc1)Nc1cccc(S(=O)(=O)Nc2ccccc2Cl)c1	3.4	2	-27	4%[15.4 µM]	?	-15%
22	CN(C)S(=O)(=O)c1ccc(Cl)c(C(=O)NNC(=O)c2ccc3c(c2)OCO3)c1	-0.1	-8	/	-10%	17	8%
23	NCCNC(=O)c1ncsc1-c1cccc(F)c1	-5.0	-28	-21	/	8	0%
24	NC(=O)C1CCCN(C(=O)c2[nH]c(C(F)(F)F)nc2-c2ccccc2)C1 (stereo not given)	-3.6	-1	4	/	1	/
25	CC1=C(C(=O)Nc2ccccc2)C(c2ccc(C)o2)N2C(=O)CSC2=N1 (stereo not given)	-5.7	-13	-5	?	-3	-2%
26	COc1cc2c(cc1OC)C(c1ccc(Cl)cc1)=NCC2	-5.4	-20	/	4%	-1	6%
27	Cc1ccc(NC(=O)c2cc(NC(=O)c3ccco3)ccc2N2CCOCC2)cc1Cl	-1.9	-4	-8	-3%	-8	-23%
28	Cc1ccc(C)c(N(CC(=O)N2CCc3ccccc3C2)S(C)(=O)=O)c1	-4.7	-14	/	-1%	4	-3%
29	CC(N=c1ccccn1C(=O)Nc1ccc(F)cc1)c1ccco1 (stereo not given)	1.0	1	-3	-7%	4	-10%
30	CCOc1ccc(C2C(C(=O)c3ccc(C)o3)=C(O)C(=O)N2CCCN(CC)CC)cc1 (stereo not given)	-1.7	-8	13	40%	-7	10%
31	O=C(NC1CCCC1)C(c1cccs1)N(Cc1ccco1)C(=O)Cn1nnc(-c2cccs2)n1 (stereo not given)	-2.2	-24	3	-6%	-10	6%
32	NS(=O)(=O)c1ccc(NC(=S)N2CCN(Cc3ccc(Cl)c(Cl)c3)CC2)cc1	3.4	-5	-12	-40%	26	-11%
33	CC(=O)Nc1ccc(S(=O)(=O)Nc2ccc(Cl)cn2)cc1	2.8	-2	-1	1%[15.4 µM]	-5	3%
34	CCOC(=O)C1CC2=C(CC(C)(C)CC2=O)N(CCOC)C1=O (stereo not given)	-0.1	-4	3	/	1	-3%
35	CCCCN(C)C(=O)C1CCN(C/C(C)=C/c2ccccc2)CC1	-0.2	-26	2	-20%	3	10%
36	O=C1CC(c2ccc(S(=O)(=O)N3CCCCC3)cc2)CN1 (stereo not given)	-0.5	10	1	?	6	8%
37	CCNc1nc(NCc2ccccc2)nc(SCC(=O)Nc2ccccc2)n1	4.9	-16	-3	-10%	-4	-12%
38	COc1ccc(C2C(C(=O)c3ccc(C)o3)=C(O)C(=O)N2c2cc(C)on2)cc1OC (stereo not given)	2.9	14	3	?	2	14%
39	CCOC(=O)C1CCCN(C(=O)c2sc(-c3ccccc3)nc2C)CC1 (stereo not given)	-1.6	-5	1	/	-1	/
40	CN(C1CCS(=O)(=O)C1)S(=O)(=O)c1ccccc1[N+](=O)[O-] (stereo not given)	-1.5	3	-6	6%	5	11%
41	CCOc1ccc(S(=O)(=O)NCc2cccnc2)cc1NC(=O)c1ccccc1F	-5.9	-12	0	-1%[15.4 µM]	-7	0%
42	CN(C)C(=O)N1CCCC(C(=O)NCc2ccccc2Cl)C1 (stereo not given)	-2.9	-4	-4	1%	6	7%
43	Cc1ccc(N(CC(=O)Nc2ccc3c(c2)OCCO3)S(=O)(=O)c2c(C)n[nH]c2C)cc1	-1.7	-16	-2	1%	-1	-28%
44	COc1ccc(CCNC(=O)CSc2nnc3ccc(-c4cccnc4)nn23)cc1OC	2.7	-2	-13	?	1	-7%
45	CCC1CCCCN1CCCNC(=O)C1CCN(Cc2nc(-c3ccc(Cl)cc3)oc2C)CC1 (stereo not given)	-7.8	-11	/	3%	8	-4%
46	Cc1ccc(Cn2c([N+](=O)[O-])cnc2C)cc1	-2.8	-6	3	-18%	7	5%
47	CC(=O)NCCOC(=O)Nc1cccnc1	1.2	2	6	11%	-2	2%
48	CC1=CCC2C(=O)N(CCc3c[nH]c4ccccc34)C(=O)C2C1 (stereo not given)	0.9	-1	-9	-21%	-2	7%

# Quoted at random: two compounds from above
No.	structure	D2 ag	D2 PAM	CtBP-E1A blk	gsp agonist	Six1-Eya2 blk	gsp antag
45	CCC1CCCCN1CCCNC(=O)C1CCN(Cc2nc(-c3ccc(Cl)cc3)oc2C)CC1 (stereo not given)	-7.8	-11	/	3%	8	-4%
48	CC1=CCC2C(=O)N(CCc3c[nH]c4ccccc34)C(=O)C2C1 (stereo not given)	0.9	-1	-9	-21%	-2	7%

# Continuation:
No.	structure	D2 ag	D2 PAM	CtBP-E1A blk	gsp agonist	Six1-Eya2 blk	gsp antag
49	O=C(NN1CCOCC1)c1ccc(Cl)cc1Cl	-5.7	-20	/	25%	1	2%
50	Cn1c2c(c(O)c(-c3ccccc3)c1=O)C(=O)CC(C)(C)C2	-5.1	5	-1	-2%[15.4 µM]	8	-6%
51	CCOC(=O)CNC(=O)N(C)[C@H]1C[C@H]2c3[nH]c4ccccc4c3CCN2C(=O)[C@H]1[C@H](C)O	-2.9	-1	5	/	10	/
52	CSCCC(NC(=O)COc1ccccc1)C(=O)O (stereo not given)	2.0	0	9	-34%[inhibitor]	3	9%
53	CN(C(=O)COC(=O)COc1ccccc1Cc1ccccc1)c1ccccc1	-1.2	0	15	-2%[15.4 µM]	7	-3%
54	CCOc1ccccc1NC(=O)CSc1nnc(CNC(=O)c2ccccc2F)o1	-0.3	-9	0	32%	1	-4%
55	COc1cccc(NC(=O)CNC(=O)Cn2cnc3sc4c(c3c2=O)CCCC4)c1	0.3	7	-12	10%	-7	-16%
56	CCCCOc1ccc(C(=O)NCC(=O)NC2CCCCC2)cc1	-2.7	-4	/	?	-1	1%
57	COCCNC(=O)COC(=O)c1cccnc1SC	2.8	1	8	15%	0	6%
58	COC(=O)c1ccc(CNC(=O)COC(=O)C2CCC(C(C)(C)C)CC2)cc1 (stereo not given)	0.9	-8	12	-11%	1	7%
59	CCN(C(=O)N1CCOCC1)c1ccccc1C	0.2	0	0	12%[15.4 µM]	3	7%
60	Cc1ccc(CSc2ccc(S(=O)(=O)N3CCCCC3)cn2)cc1	-5.5	-1	0	11%[15.4 µM]	7	9%
61	CCOCCCNC(=O)c1[nH]c(C)c(C(C)=O)c1C	-1.4	-24	0	-8%	-1	4%
62	CC(=O)Nc1cccc(C(=O)N/N=C/c2cccc(C)n2)c1	-1.3	3	-7	10%	-7	9%
63	COc1ccc(C(=O)C[n+]2cc(-c3ccc(OC)cc3)n3c2CCCC3)cc1	-4.9&-3.9	-13&-9	-1	25%&-5%	3&6	8%&-3%
64	CCOc1ccc(N2C(=O)CC(N)C2=O)cc1 (stereo not given)	-4.0	-9	2	0%	-1	10%[15.4 µM]
65	COC(=O)C1=C(N)OC2=C(C(=O)CC(C)(C)C2)C1c1ccoc1 (stereo not given)	0.7	5	5	13%	1	13%
66	CC(C)(C)n1nc2c(c1NC(=O)c1ccc(Br)cc1)CS(=O)C2 (stereo not given)	-3.3	-5	0	5%	24	9%
67	COc1ccc2ccccc2c1CNc1nnnn1C	-2.7	-6	1	16%[15.4 µM]	3	-3%
68	Cc1nn2c(NCc3ccccn3)cc(C(C)C)nc2c1-c1ccccc1	2.7	0	/	5%	4	-10%
69	CCCCN1C(=O)C(CC(=O)NC2CC2)CC(C(=O)N(C(C)C)C(C)C)=C1C (stereo not given)	-2.4	3	4	?	5	/
70	CC(C)(C)c1cc[n+](-c2[nH]c(=O)sc2/C=N/NC([S-])=Nc2ccccc2)cc1	-4.2	-11	-13	-42%[inhibitor]	65	8%
71	Cc1ccc(/C=C/C(=O)NCCCN2CCN(CCCNC(=O)/C=C/c3ccc(C)cc3)CC2)cc1	-1.3	-3	-2	25%	8	3%
72	Cc1cccc(NS(=O)(=O)c2ccc(C)c(C(=O)NCC(c3ccccc3)N(C)C)c2)c1 (stereo not given)	-2.5	-4	-21	4%	-2	-8%
73	Cc1oc(=O)cc(OCc2ccccc2)c1C	-2.2	-3	1	/	-1	-6%
74	O=C(Oc1ccccc1)c1cc2ccccc2o1	-0.9	-13	9	-26%	21	9%
